HPGD block: blocks human HPGD enzyme activity; P15428; purified HPGD, NADH fluorescence kinetic, PGE2 substrate; Potency, µM, without a hit: at the top dose activity change, negative = inhibition, usual class: inhibitors; 150,000 tested, 4.3% active; AID 894; active = well fitted inhibition curve with a large enough effect (not every such curve was filed as active); inconclusive = small, poorly fitted or top-dose-only effect, or another doubt; inactive = no such curve, though single readings can be large or run the other way;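 also: top concentration of the series not given in the record; plate controls included wells without enzyme; inactives centre near -10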
Target sequence (P15428 whole entry, looked up): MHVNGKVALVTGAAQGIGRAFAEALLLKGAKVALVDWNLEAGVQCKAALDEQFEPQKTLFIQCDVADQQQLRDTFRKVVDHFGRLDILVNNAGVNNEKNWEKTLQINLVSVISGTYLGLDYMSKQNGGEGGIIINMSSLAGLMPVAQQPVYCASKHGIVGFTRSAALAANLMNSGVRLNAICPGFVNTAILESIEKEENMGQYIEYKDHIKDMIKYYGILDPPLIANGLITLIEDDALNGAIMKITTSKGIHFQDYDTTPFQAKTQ
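NADH formation kinetics: reaction with 30 uM PGE2 and 1 mM NAD+ (final), 20 nM enzyme, Tris-HCl pH 8 with Tween 20, after 15 min compound preincubation at room temperature. Fluorescence change, last versus first of five reads.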
The depositor's hits bear a star; ? = inconclusive; & = joins results of further samples. % is scaled to controls: 0 for no effect and ±100 for the full control effect; potency is read from the fitted curve at half-maximal effect. Only part of the results is shown. The share of hits here may be higher or lower than overall.

SMILES	HPGD block
CC(CP(=O)(O)O)NC(=O)Cc1ccccc1 (centres undefined)	2%
O=C(c1ccco1)n1nc(-c2ccco2)nc1SCc1ccccc1	?
O=C(O)c1cc(C(=O)O)c(-c2ccccc2)c(C(=O)O)c1	-5%
CCn1nc(C(=O)Nc2nc3ccccc3[nH]2)c2ccccc2c1=O	-10%
COC(=O)CSc1ncc(C#N)c(N)n1	-16%
c1ccc(-c2ccccc2OCCN2CCOCC2)cc1	-2%
CCN(C1CCCCC1)S(=O)(=O)c1ccc(S(=O)(=O)N(CC(=O)Nc2ccccc2)C2CC2)cc1	-9%
COCc1nnc(NS(=O)(=O)c2ccc([N+](=O)[O-])cc2)s1	?
CC(C)c1cc(Br)ccc1OCCCN1C(=O)NC(C)(C)C1=O	-12%
N#Cc1ccc(-c2cccnc2)nc1SCc1ccc(Cl)c(Cl)c1	-7%
Cc1ccc(Cn2c3ccccc3c3cn[nH]c(=O)c32)cc1	-18%
S=c1sc2c(N3CCN(Cc4ccccc4)CC3)ncnc2n1-c1ccccc1	-20%
CCOc1cnc(-c2ccc(OC)cc2)o1	-6%
O=[N+]([O-])c1cc(Cc2cc([N+](=O)[O-])c3cccnc3c2O)c(O)c2ncccc12	-12%
NC(=O)CSc1nnc(-c2ccoc2)o1	4%
COc1ccc(/C=N/Nc2nc(Nc3ccccc3)nc(N3CCCCC3)n2)c(OC)c1	-19%
Cc1cc(C)c(C(N)=O)c(NC(=O)Nc2ccccc2)n1	-2%
COc1ccc(F)cc1S(=O)(=O)n1cc(C)nc1-c1ccccc1	-5%
COc1ccc(CC/C(C)=N\NC(N)=O)cc1	9%
Cc1ccc(OCCCN(C)C)c(Br)c1	-3%
O=C1NN(c2ccccc2)C(=O)/C1=C/c1ccc(Sc2cccc3ccccc23)o1	18µM*
CCc1ccc(CCC(=O)O)nc1	-1%
CC1CN(C2CCN(S(=O)(=O)Cc3ccccc3)CC2)CC(C)O1 (centres undefined)	-5%
Cc1cc(Cl)ccc1OC(C)C(=O)Nc1ccccc1N1CCOCC1 (centres undefined)	-4%
Cc1cccc(N=C2NC(=O)/C(=C/c3cccs3)S2)c1	-19%

By substructure: those above containing bromine (two)
SMILES	HPGD block
CC(C)c1cc(Br)ccc1OCCCN1C(=O)NC(C)(C)C1=O	-12%
Cc1ccc(OCCCN(C)C)c(Br)c1	-3%

Going on with the list:
SMILES	HPGD block
COCC(=O)N1CCC2(CC1)CN(c1ccccc1)C2	-9%
CC(C)(C)c1csc(NC(=O)c2ccc(Cl)s2)n1	-24%
COc1cc(C(=O)NCCc2ccc(F)cc2)c([N+](=O)[O-])cc1OC	0%
Nc1c(C(=O)c2cccs2)oc2ccccc12	-19%
COc1cc(C2NC(=S)NC3=C2CCc2ccccc23)cc(OC)c1OC (centres undefined)	-15%
O=C(Nc1ccc(S(=O)(=O)Nc2cnc3ccccc3n2)cc1)c1ccc(Br)o1	?
CC(C)CNC(=O)COC(=O)CCC(=O)c1ccc(F)cc1	-18%
CC(C)(C)NC(=O)c1cnn2c1NC(c1ccc(F)cc1)CC2C(F)(F)F (centres undefined)	-1%
Cc1ccc(C(=O)NCCCc2ccccc2)s1	-25%
Cn1c(CCCNC(=O)c2cccs2)nc2ccccc21	0%
CCN(C(=O)c1ccc2c(OC)n(CC)nc2c1)c1ccc(OC)cc1	?
C=C(C)CSc1nnc([C@@H]2CCCN2C(=O)OC(C)(C)C)o1	-4%
COc1ccc(CCNC(=O)CC(NC(=O)c2ccccc2Cl)c2ccccc2)cc1 (centres undefined)	-1%
Cc1cc(F)c(F)c(C(=O)N2CCOCC2)c1Cl	-7%
Cc1ccc(Sc2c(C)nn(C(=O)c3cccc(S(=O)(=O)N4CCOCC4)c3)c2C)cc1	?
c1ccc2occc2c1	-2%
CCC(=O)NCCc1nc2ccccc2n1Cc1ccc(C)cc1	8%
O=C(NC12CC3CC(CC(C3)C1)C2)c1ccc(=O)oc1	-16%
Cc1cccc(NC(=O)COc2ccc(Br)cc2C)n1	-16%
COc1cc(/C=C2\C(=O)ON=C2c2ccccc2)cc(OC)c1OC	14µM*
Cc1cccn2c(=O)c3cc(C(=O)N(C)C)n(C)c3nc12	?
COc1cc(C(=O)NCC(c2ccco2)N(C)C)cc(OC)c1OC (centres undefined)	-18%
COCCN1Cc2cccc(C(=O)NCc3ccccc3OC)c2C1=O	-5%
Cc1ccnc(N2CCC(C(=O)NC3CCCCCC3)CC2)n1	?
COc1cc(SC)ccc1C(=O)NCCOc1ccc(C)c(C)c1	-5%

Reprinted from the part before: twelve compounds; new compounds follow.
SMILES	HPGD block
Cc1cc(F)c(F)c(C(=O)N2CCOCC2)c1Cl	-7%
Cc1ccc(Sc2c(C)nn(C(=O)c3cccc(S(=O)(=O)N4CCOCC4)c3)c2C)cc1	?
c1ccc2occc2c1	-2%
CCC(=O)NCCc1nc2ccccc2n1Cc1ccc(C)cc1	8%
O=C(NC12CC3CC(CC(C3)C1)C2)c1ccc(=O)oc1	-16%
Cc1cccc(NC(=O)COc2ccc(Br)cc2C)n1	-16%
COc1cc(/C=C2\C(=O)ON=C2c2ccccc2)cc(OC)c1OC	14µM*
Cc1cccn2c(=O)c3cc(C(=O)N(C)C)n(C)c3nc12	?
COc1cc(C(=O)NCC(c2ccco2)N(C)C)cc(OC)c1OC (centres undefined)	-18%
COCCN1Cc2cccc(C(=O)NCc3ccccc3OC)c2C1=O	-5%
Cc1ccnc(N2CCC(C(=O)NC3CCCCCC3)CC2)n1	?
COc1cc(SC)ccc1C(=O)NCCOc1ccc(C)c(C)c1	-5%
N=c1c(C(=O)NCc2ccco2)cc2c(=O)n3ccccc3nc2n1Cc1ccccc1	?
CCCC1CC(CSC(=N)N)OC1=O (centres undefined)	-11%
Cc1c(C(=O)O)oc2ccc(S(=O)(=O)NC3CCCCCCC3)cc12	-27%
Cc1ccc2c(c1)c1c(n2CC2COC(C)(C)O2)C(=O)CCC1 (centres undefined)	?
COc1ccc(C(=O)N2CCCCC2)cc1S(=O)(=O)Nc1cccc(C(=O)O)c1	5%
O=C(C1CCN(C2CC(=O)N(c3cccc(Cl)c3)C2=O)CC1)N1CCCC1 (centres undefined)	-20%
Cc1cc(-c2sccc2C)nc(-n2cccc2)n1	-21%
COc1ccccc1NC(=S)NNC(=O)c1nn(C)cc1Cl	-18%
COc1cccc(C(=O)NC(C)c2ccc(Br)cc2)c1 (centres undefined)	-4%
Cc1ccc2ccc3cccc4ccc1c2c34	?
COc1cc(C2C(C#N)=C(N)N(Nc3ccccc3)C3=C2C(=O)CC(C)(C)C3)ccc1OCc1ccccc1 (centres undefined)	-18%
CCOc1ccc(CCNc2nc3c(c(=O)n(C)c(=O)n3C)n2CC)cc1OCC	-2%
N#CC1=C2SCN(Cc3ccccc3)CN2C(=O)CC1c1ccccc1F (centres undefined)	28µM*
C=CCOc1ccc(/C(O)=C2\C(=O)C(=O)N(CCN(C)C)C2c2cccs2)cc1 (centres undefined)	-18%
CCN(CC(=O)N1CCCCCC1)S(=O)(=O)c1ccc(Cl)cc1	-10%
N#C/C(=C\c1ccc(N2CCCC2)c([N+](=O)[O-])c1)c1nc2ccccc2[nH]1	-5%
Cc1c(N=Cc2ccccn2)c(=O)n(-c2ccccc2)n1C	-9%
CCCn1c(=O)c2c(c3ccccc31)OC(C)C(=O)N2 (centres undefined)	-4%
Cc1cc(C)cc(N(CC(=O)Nc2ccccc2C(=O)N2CCOCC2)S(C)(=O)=O)c1	-6%
O=C(O)Cn1cccc1C(=O)c1ccccc1	-23%
CCCCS(=O)(=O)N1CCc2nc(-c3ccccc3)c3c(c2C1)CO[C@@H](C)C3	-12%
O=c1[nH]ncc2ccccc12	-7%
CCOP(=O)(OCC)/C(=N/OC(=O)c1ccccc1C)C(N)=O	-11%
O=C(Cn1cnc2ccccc2c1=O)c1ccc2c(c1)OCCO2	-17%
Cc1cc(NS(=O)(=O)c2ccc(NC(NC(=O)C(C(F)(F)F)C(F)(F)F)(C(F)(F)F)C(F)(F)F)cc2)no1	?
More entries
SMILES	HPGD block
CCOC(=O)c1c(C)c(-c2ccccc2)n(CC(=O)N2CCCC2)c1C	-9%
N#CC1=C(N)C(C#N)(C#N)[C@H](c2ccoc2)[C@H]2CN(Cc3ccccc3)CC=C12	?
Nc1ccc(Cl)cc1[N+](=O)[O-]	-4%
C=CCCCCCCCCc1nc(=S)[nH][nH]1	-25%
Cc1csc(-c2cnn(-c3ccccc3)c2NC(=O)c2cccc(C(F)(F)F)c2)n1	-14%
CCNC(=O)Cc1ccc(NS(=O)(=O)c2ccc(F)cc2)cc1	-7%
O=C(Nc1ccccc1)c1ccc(NC2CCCCC2)c(S(=O)(=O)N2CCOCC2)c1	?
O=C(Nc1ccc2c(c1)nc1n2CCN(Cc2ccccc2)C1)c1cccs1	-23%
CCOC(=O)c1cnc2ccc(OCC)cc2c1NCc1ccccc1OC	?
COc1ccc(/C=N/Nc2nonc2N)cc1OC	-15%
CCOC(=O)CC(=O)Nc1ccccc1C(=O)O	-1%
CCc1nnc(NC(=O)C2Cc3ccccc3CN2S(=O)(=O)c2c(C)c(C)cc(C)c2C)s1 (centres undefined)	-13%
CN(CCc1ccccn1)C(=O)Nc1ccc(Cl)cc1	-4%
Cc1cccc(NC(=O)Nc2ccc(C)c(C)c2)n1	-2%
CC(=O)c1cccc(NC(=O)C(OC(=O)/C=C/c2ccc3c(c2)OCO3)c2ccccc2)c1 (centres undefined)	?
COc1ccc(Oc2ncnc3c2ncn3Cc2ccccc2)cc1	8.9µM*
CN(C)S(=O)(=O)n1cnc2ccccc21	-10%
Cc1ccc(S(=O)(=O)N2CCC(C(=O)NCCc3ccc(S(N)(=O)=O)cc3)CC2)cc1	-4%
CCOC(=O)N1CCN(C(=O)C2CCN(S(=O)(=O)N3CCCC3)CC2)CC1	-10%
C=CCNCCOCCSc1ccc(Cl)cc1	-5%
O=C(CSc1nccn1Cc1ccccc1)NCc1ccccc1	-8%
CCN1CCN(C(=O)CS(=O)Cc2nc(-c3ccc(OC)cc3)oc2C)CC1 (centres undefined)	-15%
C=CCOc1ccc(CNn2cn[nH]c2=S)cc1OC	-24%
CCc1c(C)nc(N)nc1OCC(F)(F)C(F)F	-15%
O=c1[nH]c(=O)n(C2CC(O)C(CO)O2)cc1F (centres undefined)	-3%
Additional entries follow:
SMILES	HPGD block
O=C(NCc1cccs1)Nc1cccs1	?
CCOC(=O)c1ccc(N2C(=O)CC(N3CCN(C/C=C/c4ccccc4)CC3)C2=O)cc1 (centres undefined)	-2%
COc1ccc2c(c1)c(=O)oc1cc(OCC(=O)N3CCc4ccccc4C3)ccc12	?
CCOCCCNC(=O)C(NC(=O)c1ccc(NC(C)=O)cc1)c1ccc(Cl)cc1 (centres undefined)	-5%
O=C(OCc1nnc(-c2ccc(Cl)cc2)o1)c1ccncc1	-29%
Cc1ccccc1-c1ccc(Nc2ccc(N3CCOCC3)cc2)nn1	-22%
CCOC(=O)c1cc2sccc2n1CC(=O)N1c2ccccc2CC1C (centres undefined)	-21%
O=C(O)c1cc(S(=O)(=O)O)ccc1O	?
Cc1ccc(NC(=O)CCn2nc([N+](=O)[O-])cc2C)nc1	3%
CC(=O)c1ccc(OC(C)C)c(CSc2nc(O)cc(=O)[nH]2)c1	3.5µM*
COC(=O)C(C)Sc1nnc(SC(C)C(=O)OC)s1 (centres undefined)	-19%
COc1ccc(NC(=O)c2c3c(nc4ccccc24)CCC3)cc1S(=O)(=O)N1CCOCC1	-2%
CCOc1cc(S(=O)(=O)n2nc(C)cc2C)ccc1F	-30%
Cc1ccc(N2CS(=O)(=O)/C(=C/N(C)C)C2=O)cc1	-11%
CCC(C)(C(=O)NC1CCCC1)N(Cc1cccs1)C(C)=O (centres undefined)	-9%
Cn1c(=O)oc2cc(S(=O)(=O)NC3CCN(Cc4ccccc4)CC3)ccc21	-13%
COc1cc(/C=C2\SC(c3ccc(C)cc3)=NC2=O)cc(OC)c1OC	?
CN1CCC[C@H]1c1cccnc1	-18%&6%&-3%
O=S(=O)(c1ccc(Cl)nc1)N1CCCc2ccccc21	-18%
C[C@@]12C(=O)OC(=O)[C@@]1(C)[C@@H]1CC[C@@H]2O1	-14%
N#CC1=C(N)OC(c2ccccc2)=C(C#N)C1c1ccc2c(c1)OCO2 (centres undefined)	14µM*
O=C(Nc1ccc(C(=O)N2CCCCC2)cc1)C1CCCCC1	2µM*
COc1ccccc1N=Cc1c(O)c2ccccc2oc1=O	?
CN(CCc1ccc(Cl)c(Cl)c1)CCN1CCCCCC1	1%
O=C(/C=N/O)NCCCN1CCOCC1	-15%
(next part)
SMILES	HPGD block
Cn1c(Cc2cccs2)nnc1SC/C=C/c1ccccc1	-27%
COc1ccc(C(=O)Nc2ccc(S(=O)(=O)N3CCCCC3)cc2)cc1	-18%
CCOC(=O)c1nnn(-c2nonc2N)c1-c1ccc(OC)cc1	-10%
CC1CCN(S(=O)(=O)c2cccc(-c3cn4cc(Cl)ccc4n3)c2)CC1	?
Cc1ccnc(SCCn2c(N3CCN(C)CC3)nc3c2c(=O)[nH]c(=O)n3C)n1	-14%
COc1ccc(N(C)S(=O)(=O)c2cccc3cccnc23)c(OC)c1	3%
COc1ccc(N=CC2=C(O)CC(C)(C)CC2=O)cc1	-5%
O=C(c1ccc(F)cc1)C1CCN(C(=O)NC2CCCCC2)CC1	-8%
Cc1cccc(Sc2c(C=O)c3ccccc3n2C)c1	?
O=C(COC(=O)C12CC3CC(CC(C3)C1)C2)NC12CC3CC(CC(C3)C1)C2	-26%
COc1ccc(-c2n[nH]c(=S)n2-c2ccc3c(c2)OCCO3)cc1	25µM*
O=C(CSC1CCCCC1)Nc1ccccc1Br	18µM*
CN1CCN(S(=O)(=O)c2ccc3[nH]cc(C(=O)O)c(=O)c3c2)CC1	?
COc1ccc(NC(=S)NCCc2c[nH]c3ccccc23)cc1	-15%
CC(=O)Nc1cc(C(=O)O)ccc1S(=O)(=O)c1ccc(Cl)cc1	-9%
